FEN1 inh: human FEN1 inhibition. Potency, µM (doses to about 114 µM), without a hit: at the highest dose activity change, negative = inhibition, actives largely listed as inhibitors. P39748. Recombinant FEN1 flap cleavage, fluorescence, 15 min. 390,000 tested, 0.35% active; further: nearly all actives have a fitted effect of over 65% in size
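Potency values derive from four-parameter Hill fits of normalized qHTS data. The reaction used 10 nM FEN1 preincubated 15 min at room temperature with compound, then 50 nM DNA substrate, read at 0 and 15 min.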
KAT2A inh: blocks human GCN5L2 histone acetyltransferase; GCN5L2 HAT assay, ThioGlo1 CoA-SH fluorescence; Potency, µM (doses to about 58.9 µM), for inactives: at the top dose activity change, negative = inhibition, most hits filed as inhibitors; 390,000 tested, 0.21% active; AID 504327
Target sequence (Q92830 whole entry, looked up): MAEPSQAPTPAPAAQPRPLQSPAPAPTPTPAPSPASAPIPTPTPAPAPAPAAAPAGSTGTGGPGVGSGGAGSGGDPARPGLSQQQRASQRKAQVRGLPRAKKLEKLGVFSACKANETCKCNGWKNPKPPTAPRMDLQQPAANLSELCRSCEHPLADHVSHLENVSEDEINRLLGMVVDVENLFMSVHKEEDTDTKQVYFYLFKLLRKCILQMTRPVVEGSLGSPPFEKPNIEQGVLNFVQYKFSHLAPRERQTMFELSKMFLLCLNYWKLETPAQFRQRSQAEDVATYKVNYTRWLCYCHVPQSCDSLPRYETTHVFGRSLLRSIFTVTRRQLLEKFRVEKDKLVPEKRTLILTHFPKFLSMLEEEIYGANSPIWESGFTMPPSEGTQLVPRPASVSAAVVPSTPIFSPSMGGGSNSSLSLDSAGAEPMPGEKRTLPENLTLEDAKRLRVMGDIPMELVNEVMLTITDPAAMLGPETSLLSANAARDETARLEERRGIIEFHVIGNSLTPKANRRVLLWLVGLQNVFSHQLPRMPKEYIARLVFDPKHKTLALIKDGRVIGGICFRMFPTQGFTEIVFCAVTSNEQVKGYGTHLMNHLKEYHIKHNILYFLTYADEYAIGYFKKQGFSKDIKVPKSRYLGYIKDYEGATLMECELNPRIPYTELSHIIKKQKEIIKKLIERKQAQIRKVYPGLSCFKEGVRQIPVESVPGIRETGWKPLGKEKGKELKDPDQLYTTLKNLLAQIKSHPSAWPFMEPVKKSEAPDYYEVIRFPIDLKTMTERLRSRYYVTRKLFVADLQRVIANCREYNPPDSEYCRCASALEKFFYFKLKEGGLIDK
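Fluorescence readout, Ex340nm/Em540nm: ThioGlo1 (50uM final) reacts with free CoA thiol released as 20nM GCN5L2 acetylates H3(1-25) peptide (75uM) using acetyl-CoA (70uM). Compound and enzyme sat 15 min beforehand; 20 min room-temperature reaction.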
* hit, by the source's call; ? = inconclusive; . = no result given; & = joins results of further samples; [ ] = another dose, or the depositor's remark. The call rests on the fitted dose curve; in most records, active means well fitted curve in the direction sought with a large enough effect; inconclusive means small, poorly fitted or top-dose-only effect, or another doubt; inactive means no such curve, though single readings can be large; an effect the other way counts as inactive or inconclusive. On the % scale 0 is the no-effect control and ±100 the full control effect; potency means the concentration at half of the fitted maximal effect. The list is partial, and most or all hits are left out here.

The first 5 records (preview)
SMILES	FEN1 inh	KAT2A inh
CC(=O)Nc1ccc(S(=O)(=O)NCc2ccc(C(=O)N3CCOCC3)cc2)cc1	-10.9%	-2.0%
CCc1ccc(-c2cc(C(=O)NN3CCN(C)CC3)c3ccccc3n2)cc1	-4.1%	-1.4%
COc1cccc(NC(=O)CN(C)C(=O)/C=C/c2cc(OC)ccc2OC)c1	2.5%	?
Cc1ccc(C)c(N/N=C2\CCCNC2=O)c1	-1.8%	-6.1%
c1ccc(Cn2cc(CNc3ccccc3)nn2)cc1	17.8%	-21.5%

The listing, from the start:
SMILES	FEN1 inh	KAT2A inh
CC(=O)Nc1ccc(S(=O)(=O)NCc2ccc(C(=O)N3CCOCC3)cc2)cc1	-10.9%	-2.0%
CCc1ccc(-c2cc(C(=O)NN3CCN(C)CC3)c3ccccc3n2)cc1	-4.1%	-1.4%
COc1cccc(NC(=O)CN(C)C(=O)/C=C/c2cc(OC)ccc2OC)c1	2.5%	?
Cc1ccc(C)c(N/N=C2\CCCNC2=O)c1	-1.8%	-6.1%
c1ccc(Cn2cc(CNc3ccccc3)nn2)cc1	17.8%	-21.5%
O=C1NCCC/C1=N/Nc1cc(F)ccc1F	8.2%	1.6%
CCc1cc2c(=O)c(-c3nc4ccccc4[nH]3)coc2c(CN2CCCCC2)c1O	5.8%	-6.7%
Cc1ccc2nc(-c3ccc(N)cc3)sc2c1	2.9%	-5.3%
CCC1(c2ccccc2)NC(=O)N(CC(=O)Nc2cc(Cl)ccc2N2CCOCC2)C1=O (configuration not stated)	1.0%	-25.9%
Cc1cc(C(F)F)nn1CC(=O)NCc1ccccc1F	4.9%	-10.4%
Cn1c(=O)c2cc(S(=O)(=O)NC(Cc3ccccc3)C(=O)NCC3CCCO3)ccc2n(C)c1=O (configuration not stated)	-6.2%	-2.2%
O=C(CSc1nnc(-c2ccco2)o1)Nc1ccccc1Cl	-4.5%	-4.0%
O=C(NCc1ccccc1)c1nc(S(=O)(=O)Cc2ccc(F)cc2)ncc1Cl	3.4%	-5.7%
CCOc1ccc2[nH]c(=O)c(CN(CCO)Cc3nnnn3CCc3ccccc3)cc2c1	-12.1%	1.6%[0.501 µM]
O=C(C/C(=N\NC(=O)c1ccccc1Br)C(F)(F)F)c1cccs1	1.6%	-13.2%
Cc1c(NC(=O)CCN2C(=O)c3ccccc3C2=O)c(=O)n(-c2ccccc2)n1C	-0.4%	-0.8%
Cc1ccc(C(=O)NCC(=O)OCC(=O)N(CC(C)C)c2c(N)n(Cc3ccccc3)c(=O)[nH]c2=O)cc1	11.3%	1.7%
CC(C)(C)NC(=O)CN(C(=O)Cn1nnc(-c2ccccc2F)n1)c1cccc2c1CCCC2	-16.6%	-4.9%
CCOC(=O)N1CCN(c2cc(NCCO)c([N+](=O)[O-])c3nonc23)CC1	-17.2%	-2.6%
CCCOc1ccc(/C=N/NC(=O)c2ccc3c(c2)OCO3)c(OCCC)c1	0.0%	-21.4%
O=C(NNC(=O)c1ccccc1[N+](=O)[O-])c1ccc(NS(=O)(=O)c2cccs2)cc1	-1.8%	-3.0%
CCOC(=O)C(C(=O)OCC)C(C[N+](=O)[O-])c1ccccc1 (configuration not stated)	-8.5%	1.4%
CC(=O)Nc1sc(NC(=O)c2ccc(Cl)cc2)nc1-c1cccs1	2.7%	0.3%
CN(C(=O)c1ccc2c(c1)OCCO2)c1c(N)n(Cc2ccccc2)c(=O)[nH]c1=O	-13.0%	-5.5%
CC1=C(c2ccc(Cl)cc2)S(=O)(=O)NC1=NCc1ccc(C)cc1	11.2%	-1.9%
COc1cc(C(=O)Nc2c(C)cc(C)cc2C)c([N+](=O)[O-])cc1OC	-18.5%	-1.6%
CCOC(=O)C1(CC2CC2)CCN(Cc2cnc(N(C)C)s2)CC1	-4.1%	12.3%
N#Cc1ccccc1Cn1c(SCC(=O)NCc2ccccc2)nc2ccccc21	6.0%	1.3%
COc1cccc(-n2c(=O)c3sc4ccccc4c3n(Cc3c(F)cccc3Cl)c2=O)c1	9.6%	1.0%
C=C[C@@]1(C)CCC(/C(C)=C/C=C/C(C)(C)O)C[C@@H]1C(=C)C (some centres not stated)	0.6%	0.5%
O=C(COC(=O)C1(c2ccc(F)cc2)CCCC1)Nc1ncc(C(F)(F)F)cc1Cl	-21.0%	-14.6%
CCC(=O)N1CCc2cc(S(=O)(=O)NCCCN3CCN(Cc4ccccc4)CC3)ccc21	-2.2%	5.6%
COc1cc(-c2nc(S(=O)(=O)c3ccccc3)c(N3CCOCC3)o2)cc(OC)c1OC	-17.5%	1.6%
C=C1CC[C@H](O)C/C1=C/C=C1\CCC[C@]2(C)[C@@H]([C@H](C)/C=C/[C@H](C)C(C)C)CC[C@@H]12	-24.1%	-28.2%
O=C(O)c1ccc(NS(=O)(=O)c2ccc3c(c2)C(=O)c2cc(S(=O)(=O)Nc4ccc(C(=O)O)cc4)ccc2-3)cc1	-18.5%	-12.1%
CCOC(=O)C1CCN(C(=O)c2cc3cc4ccc(C)cc4nc3o2)CC1	-8.4%	-8.1%
O=C(NCCOc1ccccc1F)c1cc(F)c(F)cc1Cl	16.1%	-2.4%
CCC1S/C(=N/N=C/c2ccco2)N(c2ccc(F)cc2)C1=O (configuration not stated)	-0.9%	1.8%
Cc1ccc(NC(=O)Cn2c(=O)n(Cc3nc(-c4ccccc4)no3)c(=O)c3ccccc32)c(C)c1	-9.7%	0.5%
CCOc1cc(/C=C(\C#N)C(=O)Nc2ccc(OC)cc2)ccc1OCc1cc(=O)n2nc(CC)sc2n1	16.9%	0.6%
CCOc1ccccc1CNC(=O)c1ccc2c(c1)nc1n2CCCCC1	-1.5%	12.0%
Cc1ccc(S(=O)(=O)N(C)C)cc1NC(=O)CCNC(=O)c1ccccc1Cl	-13.1%	9.7%
CC(=O)c1cccc(NC(=O)CNC(=O)c2cc3ccccc3o2)c1	-12.9%	-8.6%
Nc1ccccc1C(=O)NNC(=O)C(=O)/C=C(\O)c1ccccc1	-18.7%	-10.4%
COc1ccc(Cn2c(-c3ccc(OC)cc3)nc3ccccc32)cc1	7.2%	-2.8%
O=C(C1CCN(S(=O)(=O)c2cccnc2)CC1)N1CCN(c2cccc(Cl)c2)CC1	-2.4%	-10.1%
COc1ccc(CN2C(CC(=O)Nc3cccnc3)c3ccc(C(F)(F)F)cc3S2(=O)=O)cc1 (configuration not stated)	2.6%	-8.3%
COCCCN(C(=O)c1cc(C)oc1C)c1c(N)n(CC(C)C)c(=O)[nH]c1=O	-0.9%	0.3%

Reprinted at random: six compounds from above.
SMILES	FEN1 inh	KAT2A inh
O=C(NCCOc1ccccc1F)c1cc(F)c(F)cc1Cl	16.1%	-2.4%
CC(=O)c1cccc(NC(=O)CNC(=O)c2cc3ccccc3o2)c1	-12.9%	-8.6%
COc1ccc(CN2C(CC(=O)Nc3cccnc3)c3ccc(C(F)(F)F)cc3S2(=O)=O)cc1 (configuration not stated)	2.6%	-8.3%
CCOc1ccccc1CNC(=O)c1ccc2c(c1)nc1n2CCCCC1	-1.5%	12.0%
O=C(C1CCN(S(=O)(=O)c2cccnc2)CC1)N1CCN(c2cccc(Cl)c2)CC1	-2.4%	-10.1%
COc1ccc(Cn2c(-c3ccc(OC)cc3)nc3ccccc32)cc1	7.2%	-2.8%

(continued)
SMILES	FEN1 inh	KAT2A inh
COc1ccc(CNC(=O)CN(Cc2ccc(OC)cc2)C(=O)c2csnn2)cc1	13.1%	8.3%
NS(=O)(=O)c1ccc(CCNC(=O)c2cncc(Br)c2)cc1	8.1%	38.9%[activator]
CC(C)(C)NC(=O)c1ccc2c(c1)N(CC(=O)N1CCN(c3ccc(F)cc3)CC1)C(=O)C(C)(C)O2	-0.4%	-4.9%
O=C(c1ccc(Cl)cc1)N1CCCCC1CCN1CCOCC1 (configuration not stated)	14.2%	-5.9%
CCSc1nnc(NC(=O)C2CSC3(C)CCC(=O)N23)s1 (configuration not stated)	15.9%	-3.1%
Cc1ccc(/C=N/N2CCOCC2)s1	-2.1%	-4.8%
CCN1C(=O)/C(=C\N(C)C)c2ccccc21	-7.8%	-5.7%
CCOC(=O)c1cc(S(=O)(=O)NCc2cccc(Cl)c2)[nH]n1	4.4%	-6.8%
O=C(Nc1ccc(N2CCOCC2)c(Cl)c1)c1ccccc1Cl	0.7%	-5.7%
COc1ccc(N2CCN(C(=O)c3cccc(N4C(=O)C5C6C=CC(C6)C5C4=O)c3)CC2)cc1 (configuration not stated)	3.9%	-1.7%
Cc1ccc(C(C)C)c(OCC(=O)NNC(=O)C2CSC3(C)CCC(=O)N23)c1 (configuration not stated)	2.8%	-6.9%
CCCc1cc(-c2nc(-c3ccc(C)cc3)cs2)ccn1	-0.1%	-6.1%
COc1ccc(C(=O)Nc2ccc(OCc3cc(=O)n4ccsc4n3)cc2)cc1OC	4.7%	-5.7%
NS(=O)(=O)c1ccc(CCNC(=O)c2ccc3ccccc3n2)cc1	-12.3%	-1.9%
COc1ccc(N(C(=O)Cc2cccs2)C(C(=O)NC2CCCCC2)c2cccn2C)cc1 (configuration not stated)	-3.3%	-1.1%
COc1cc(C(=O)NCc2ccccn2)ccc1OCc1c(C)noc1C	4.8%	-5.0%[0.501 µM]
Clc1ccccc1CN1CCN(/N=C/C=C/c2ccco2)CC1	-14.5%	1.6%
CN(C)CC[C@H](c1ccc(Cl)cc1)c1ccccn1	.	6.9%[21.4 µM]
CCC1CN(C(=O)N2CCC(C(=O)NCc3cccc(OC)c3OC)CC2)c2cc(C)ccc2O1 (configuration not stated)	19.4%&-4.4%	-9.8%&-13.9%
CC1CCN(CCCNC(=O)C2CCC(CNS(=O)(=O)c3ccccc3)CC2)CC1 (configuration not stated)	-5.0%	-16.3%
CC(C)C1C(C#N)=C(N)Oc2n[nH]c(C(C)(C)C)c21 (configuration not stated)	0.1%	-6.4%
CC1CC1C(=O)Nc1nc(-c2ccccn2)cs1 (configuration not stated)	5.2%	2.4%
COc1ccc(NC(=O)c2cccc(S(=O)(=O)N3CCN(c4ccccc4)CC3)c2)c(OC)c1	-2.8%	-6.7%
COc1ccc(-n2c(C)c(C(C)=O)c(C(C)=O)c2C)cc1	9.7%	-0.6%
NNc1nc2ccc(Cl)cc2s1	4.7%	-1.6%
NC(=O)C(c1ccccc1)C1CCCCC1 (configuration not stated)	1.7%	-20.1%
Cc1ccccc1CN(c1ccc(C(=O)NCC2CCCO2)cc1)S(C)(=O)=O (configuration not stated)	1.3%	-2.6%
COC(=O)CSc1nc(N)c2c3c(sc2n1)CCCC3	-12.4%	-0.9%
O=S(=O)(c1ccc(Cl)cc1)c1nnn2c1nc(NCc1ccc3c(c1)OCO3)c1sccc12	8.0%	0.7%
O=C(N/N=C/c1ccc([N+](=O)[O-])o1)c1cc(-c2cccc(Br)c2)nc2ccccc12	-14.7%	-11.0%
O=C(Nc1ccc(Cl)cc1)ON=C1CCCC1	37.0%[activator]	0.5%
CCN1CC(CN(C)Cc2nc(COc3ccccc3)no2)CC1=O (configuration not stated)	12.9%	2.4%
CC(=O)C1C(=O)CC(C)(O)C(C(C)=O)C1c1ccccc1 (configuration not stated)	7.1%	-6.0%
COc1cc(OC)c(C(=O)OCC(=O)NCC2CCCCC2)cc1OC	-16.1%	-2.6%
CC(O)Cn1c(=O)c2c(nc(Br)n2Cc2ccccc2)n(C)c1=O (configuration not stated)	9.2%	0.4%
Cc1cc(C)nc(NC2=NCC(=O)N2c2ccccc2)n1	-8.7%	0.1%
Cc1ccc(C)c(N2CCN(C(=O)CN3C(=O)c4ccccc4C3=O)CC2)c1	-5.0%	-0.8%
CN1CCN(c2ccc([N+](=O)[O-])cc2C(=O)c2ccc(Cl)cc2)CC1	-7.9%	-26.8%
CCOC(=O)C1CCN(C(=O)C2CCN(S(=O)(=O)CC)CC2)CC1	3.6%	-6.1%
COc1cc(CNCCO)ccc1OC1CCCC1	0.0%	-0.8%
CCn1c(SCCC(=O)O)nnc1-c1cccnc1	-4.4%	-1.3%
CC(C)C(c1nnnn1C1CCCC1)N1CCN(C(=O)c2ccco2)CC1 (configuration not stated)	-5.3%	-6.1%
CC(=O)c1ccc(N2C(=O)NC3(CCCCC3)C2=O)cc1	11.0%	-8.4%
COC(=O)CCC(=O)Nc1nnc(C(F)(F)F)s1	-4.5%	2.3%
CCCn1c(C(C)NC(=O)c2ccccc2)nc2ccccc21 (configuration not stated)	-5.1%	2.0%
Cc1nc2cc3ccccc3cc2c(=O)[nH]1	-22.5%	-7.2%
Cc1nn2c(=O)cc(COC(=O)c3cccc(NC(=O)CCc4ccccc4)c3)nc2s1	12.7%	12.8%
Cc1cc(C)c(C#N)c(SCCS(=O)(=O)Cc2ccccc2)n1	-8.9%	-5.9%
CC1CCC2(CC1)NC(=O)N(CC(=O)NC(=O)NC1CCCC1)C2=O (configuration not stated)	-1.3%	-12.3%
O=C(OCC(=O)c1c[nH]c2ccccc12)c1cccc(O)c1	0.3%	-1.8%
Nc1cc(-c2ccc(Cl)cc2)nn1-c1ccccc1	-1.0%	2.6%
Cn1c(=O)c2c(nc(SCC(=O)Nc3ccccc3)n2C)n(C)c1=O	-18.4%	-0.9%
Cc1cc(C)c(OCC(=O)N(Cc2ccco2)Cc2ccco2)c(C)c1	0.0%	-12.8%
O=C1c2cccnc2C(=O)N1Cc1ccc(S(=O)(=O)N2CCN(c3ccc(Cl)cc3)CC2)cc1	-5.5%	-5.2%
